# High-throughput results: PubChem BioAssay, ICCB-Longwood Screening Facility, Harvard Medical School
# AID504770: growth inhibitors of E. coli YBA685 in a screen for V. cholerae RctB (chromosome II replication) inhibitors. AID 504770. z-score (no concentration beside the values). E. coli YBA685 rctB-dependent plasmid, OD600 growth, 3 h; hits give low values. 0.27% of 130,000 active;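 active = z-score under -2 on both plates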;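 note: wells of about 30 µL received 100 nL stock; score is relative to mean and SD of the test wells; the first replicate is given; strong numbers were not always called active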
# CapD inh: inhibitors of Bacillus anthracis CapD enzyme; purified CapD enzyme, fluorescence intensity read-out; hits give low values; some hits fall short of the stated cut; z-score (no concentration beside the values); 0.23% of 140,000 active; AID 492967;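 active = z-score under -4 in either of two replicates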;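 note: stock transfer was 100 nL into about 40 µL; score is relative to mean and spread of the plate; one replicate is shown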
# * marks the source's active call; other numbers are inactive results; / = no result given. Only part of the results is shown; rates above refer to the full screens.
SMILES,AID504770,CapD inh
Cc1ccnc2c(NC(=O)c3ccc(N4C(=O)C5C6C=CC(C6)C5C4=O)cc3)cccc12 (centres undefined),/,-0.33
CN(C(=S)SCC1=CCS(=O)(=O)C1)C1CCS(=O)(=O)C1 (centres undefined),0.25,/
CS(=O)(=O)c1ccc2ccn(OCC3CO3)c2c1 (centres undefined),/,24
CCNc1nc(NN)nc(NCC)n1,-0.75,/
CCOC(=O)C1CCCN(CC(=O)Nc2nccs2)C1 (centres undefined),-0.5,/
COc1ccc(C2CC(=O)NC(SCC(=O)Nc3cccc(Cl)c3)=C2C#N)cc1OC (centres undefined),/,-0.36
CCOc1ccccc1-n1c(=S)sc2c(=O)n(-c3ccccc3F)c(=S)[nH]c21,/,-0.93
COc1ccc(OC)c(C2/C(=C(\O)c3ccccc3)C(=O)C(=O)N2c2nc3ccccc3s2)c1 (centres undefined),/,-0.025
O=c1/c(=C/c2ccc(O)cc2)sc2n1C(c1ccccc1)C(c1ccccc1)=NN=2 (centres undefined),/,-0.67
CC(Nc1cc(C)ccn1)=C(C#N)C#N,-0.5,-0.26
N#CC(C#N)=CNc1ccccn1,0.7,2
CCn1c(N)c(C(=O)COC(=O)c2c(C)nn(Cc3ccccc3)c2Cl)c(=O)[nH]c1=O,0,/
CNC(=S)N1CCN(c2nc3ccccc3s2)CC1,0.7,/
O=C1CCC(=O)N1CNc1ccc(Cl)cc1,/,0.59
CCC1NC(C(=O)O)CS1 (centres undefined),-0.45,0.35
COc1ccc(CCNC(=O)CCn2c(SCC(=O)Nc3cc(C)on3)nc3ccccc3c2=O)cc1OC,/,-0.41
O=c1oc(-c2ccccc2Cl)nc2ccccc12,-0.1,-0.61
CC(C)(C)c1cc(NC(=O)CSc2ccc(S(=O)(=O)N3CCCC3)cn2)on1,0.7,/
Cc1ccc(CS(=O)(=O)Cc2ccc(C(=O)NC3CC3)o2)cc1,-1.3,0.48
COc1nc(NC(=O)c2ccc(F)cc2)nc(OC)c1-c1ccccc1,0.15,/

# Gathered by group: those above with an aryl thioether with sulfur outside any ring (2)
SMILES,AID504770,CapD inh
COc1ccc(CCNC(=O)CCn2c(SCC(=O)Nc3cc(C)on3)nc3ccccc3c2=O)cc1OC,/,-0.41
CC(C)(C)c1cc(NC(=O)CSc2ccc(S(=O)(=O)N3CCCC3)cn2)on1,0.7,/

# (further entries)
SMILES,AID504770,CapD inh
O=C1/C(=C/c2ccccc2O)N=C2CCCCCN12,-0.45,-0.58
Nc1nc(CSc2nnnn2-c2ccc(F)c(Cl)c2)nc(N2CCOCC2)n1,/,0.21
O=C(NC1CCN(C(=O)c2ccco2)CC1)c1ccccc1,0.85,-0.96
C=CCOc1nc(NCC)nc(N(C)C)n1,-0.8,0.23
COc1ccc(C(=O)COC(=O)C(Cc2c[nH]c3ccccc23)NC(=O)c2ccc(Br)cc2)cc1 (centres undefined),/,-0.77
COc1ccc(-c2cc(C(F)(F)F)nc(N)n2)cc1,/,23
O=C(Nc1ccc(Cl)cc1)c1nn2c(c1Br)NC(c1cccs1)CC2C(F)(F)F (centres undefined),/,0.38
COc1ccc(C2C(C#N)=C(N)Oc3n[nH]c(C)c32)cc1Cn1nnc2ccccc21 (centres undefined),/,0.28
Oc1ccc(C=NCC2OCCc3ccccc32)cc1 (centres undefined),0.4,0.005
COc1ccc(CCN2C(=O)C3C4c5ccccc5C(C)(c5ccccc54)C3C2=O)cc1OC (centres undefined),/,-0.48
COC(=O)C[n+]1ccc(C)cc1,-0.45,/
O=C(OCCOc1ccc(Br)cc1)c1cccs1,-0.6,/
O=C1c2ccccc2C(=O)N1CC1c2ccccc2CCN1S(=O)(=O)c1cccc([N+](=O)[O-])c1 (centres undefined),/,-0.87
CSc1ccc(CNc2ccccn2)cc1,-1.2,/
CC1=C(C(=O)Nc2ccccc2)C(c2ccc(C(C)C)cc2)n2ncnc2N1 (centres undefined),0.2,1.8
CSc1nnc(C)c(=O)n1COC(=O)/C=C/c1ccc2c(c1)OCO2,1.4,/
O=C(c1ccccc1)N1CCCn2c1nc1ccccc12,-0.55,-0.73
O=C1C(=O)N(c2cccc(C(F)(F)F)c2)C(c2ccc(Br)cc2)/C1=C(/O)c1ccccc1 (centres undefined),/,-0.4
O=c1[nH]nc(SCc2ccc(Cl)cc2Cl)c(=O)[nH]1,1.1,0.46
Cc1cc(SCC(=O)N2CCN(C)CC2)nc(SCC(=O)N2CCN(C)CC2)n1,-0.3,/

# Arranged by formula weight (descending): part of the list above.
SMILES,AID504770,CapD inh
O=C1C(=O)N(c2cccc(C(F)(F)F)c2)C(c2ccc(Br)cc2)/C1=C(/O)c1ccccc1 (centres undefined),/,-0.4
O=C(OCCOc1ccc(Br)cc1)c1cccs1,-0.6,/
Oc1ccc(C=NCC2OCCc3ccccc32)cc1 (centres undefined),0.4,0.005

# Further entries follow.
SMILES,AID504770,CapD inh
Cc1ccc(SC(=O)c2sc(-c3ccccc3)nc2C)cc1,1,8.8
CCc1ccccc1N(CC)C(=O)c1cc2c(s1)-c1c(C)cccc1OC2,0.15,-0.095
CN=Cc1c(O)[nH]c(=O)[nH]c1=O,0.1,/
CSc1nc(NC(=O)NS(=O)(=O)c2ccccc2Cl)nc(C2CC2)n1,-0.4,-0.18
CCOC(=O)C1=C(C)Nc2ncnn2C1c1cccnc1 (centres undefined),-0.05,0.075
O=C1C2C3c4ccccc4C(c4ccccc43)C2C(=O)N1CN(C(=O)C(F)(F)F)c1ccc(Cl)c(Cl)c1 (centres undefined),/,-0.42
CCS(=O)(=O)N(C)c1ccc(C(=O)Nc2cc(C)ccc2C)cc1,-0.05,-0.025
CC1(C)C=C(c2ccc(C(=O)O)s2)CC(C)(C)N1,-0.1,/
COc1cccc(C2(O)CCN(CC(=O)N3CCCC3)CC2)c1,1.4,/
CCCNC(=O)C1CC(=O)N(c2ccc(C)c(Cl)c2)C1 (centres undefined),-0.85,/
CCN1C(=O)c2cccc3c(NC(=O)c4ccncc4)ccc1c23,0.1,/
C/C(=N\NC(N)=O)c1cccc(Cl)c1,-0.5,/
O=C(NCCc1cnc[nH]1)NC12CC3CC(CC(C3)C1)C2,-1.1,0.17
O=C(OCCN1CCCC1=O)c1ccc(F)cc1F,-0.25,/
Oc1ccccc1-c1nnc(-c2ccccc2)o1,0.4,/
NS(=O)(=O)c1ccc(CCNC(=O)c2csc3c2CCCC3)cc1,-0.65,-0.17
CC(C)(C)c1ccc(OCCOc2ccc(C=C3C(=O)NC(=O)NC3=O)cc2)cc1,/,-0.52
CC(=O)N1c2ccc(S(=O)(=O)N3CCCC(C(=O)NC4CCCC4)C3)cc2CC1C (centres undefined),0.4,0.3
C=CCOc1ccc(CN2CCN(C(=O)c3ccc(-n4nc(-c5ccccc5)cc4-c4ccccc4)cc3)CC2)cc1,/,0.27
CCCS(=O)(=O)c1c(S(=O)(=O)CCC)c2ccccn2c1C(=O)N/N=C/c1cc(OC)c(OC)c(OC)c1,/,-0.17
COc1ccc(-c2nc(-c3ccc(C(F)(F)F)cc3)no2)cc1OC,0,4.2
CCCc1cc(C(=O)N/N=C/c2cnn(C)c2)sc1C,-0.4,/
COc1ccc(N2CC(C(=O)Nc3nc4ccc(S(C)(=O)=O)cc4s3)CC2=O)cc1 (centres undefined),-0.95,/
CC(C)(C)c1csc(-c2ccc3nonc3c2)n1,0.25,2.2
COC(=O)C1=C(N)C(C(=O)OC)=c2s/c(=C/c3ccccc3)c(=O)n2C1c1ccccc1 (centres undefined),2.1,0.16
CCCc1cc2c(=O)c(-c3ccc4c(c3)OCCO4)c(C(F)(F)F)oc2c(C=[N+](C)C)c1O,-1,-1.5
COc1ccc2ccccc2c1/C=N/NC(=O)C1CC1,-0.25,/
O=C(C1=C(O)C(=O)N(CCN2CCOCC2)C1c1ccccc1)c1ccco1 (centres undefined),-0.55,/
CC(C)OC(=O)C(C)N=Cc1ccccc1 (centres undefined),-0.6,0.39
CCSc1nnc(-c2cccc(S(=O)(=O)N(CC)CC)c2)o1,-0.9,/
O=C(O)CCSc1cc(-c2ccccc2)nc(SCCC(=O)O)n1,-0.55,-1.2
CS(=N)(=O)c1ccc(Oc2cccc(F)c2C#N)cc1 (centres undefined),0.25,0.11
CC(=O)N/C(=C\c1ccccc1Br)C(=O)O,-0.95,-0.5
O=C(OCc1ccc(Oc2ccccc2)c([N+](=O)[O-])c1)c1ccc([N+](=O)[O-])cc1,/,-0.89
CCOC(=O)N1CCC(NS(=O)(=O)c2ccc(C)c(Cl)c2)CC1,-0.6,-0.19
Cc1nnc(NC(=O)CC23CC4CC(CC(C4)C2)C3)s1,-0.3,0.4
O=C(NC1CC1)c1cc(-c2ccccc2)nn1-c1ccccc1,0.2,/
Cc1nn(-c2ccccc2)c(C)c1CN(C)Cn1c(=O)oc2ccccc21,-1.1,/
CC(C)(C)c1ccc(OCc2nnc(SCC(N)=O)n2-c2ccccc2)cc1,0,-0.21
CCN1CCN(C(=O)C23CC4CC(C)(CC(C)(C4)C2)C3)CC1,0.2,0.51
CCN1C(=O)c2ccccc2S(=O)(=O)c2ccc(C(=O)N3CCc4ccccc43)cc21,-0.15,0.085
O=C(c1ccccn1)c1ccc2ccccc2n1,0.3,-0.055
COc1cc(/C=C2\SC(=O)NC2=S)ccc1O,0.05,/
O=C(NC1CCCCCC1)C1CCCN(C(=O)N2CCOc3ccccc32)C1 (centres undefined),0.1,-0.11
O=C(COc1ccccc1C(=O)O)NCCc1ccccc1,-0.45,-0.6
COC(=O)c1cc(C#N)c(SCc2ccc(Cl)cc2)nc1C(OC)OC,0.15,0.82
COc1ccc(C2CCCCCN2C(=O)CCN2C(=O)COc3ccccc32)cc1 (centres undefined),0.5,/
COc1ccc(C(=O)c2nccc3ccccc23)cc1,-0.35,-0.51
Cc1ccc2oc(=O)cc(CN3CC(C)OC(C)C3)c2c1 (centres undefined),-0.95,/
CCOC(=O)c1ccc(N2C(=O)C3C4C=CC(CC4)C3C2=O)cc1 (centres undefined),/,-0.23
C/C(O)=C1/C(=O)NC23CCN(C)CC2C1c1ccccc1O3 (centres undefined),/,-0.32
CC(=O)Nc1ccc(OCc2ccc3ccccc3n2)cc1,-0.8,-0.15
CCOC(=O)c1sc(N=NC2=C(O)CCCC2=O)c(C(=O)OCC)c1C,0.75,/
COC(=O)c1ccc(NC(=O)CN(Cc2ccccc2)S(=O)(=O)c2ccc(OC)cc2)cc1,-0.45,0.065
CC1CCc2cc(F)ccc2N1C(=O)Cn1cc(C#N)c2ccccc21 (centres undefined),-0.15,/
S=C1NC2(CCCC2)N=C1c1ccccc1,-0.15,-0.27
CCOC(=O)C(C)On1c(-c2ccc(Cl)cc2)nc2ccc(Cl)cc21 (centres undefined),/,0.02
CC(=O)Oc1ccccc1C(=O)N(C(C)C)C(C)C,3.5,-1.6
COC(=O)N/N=C1/C(=O)c2cccc3cccc1c23,0.4,/
CCCC(=O)NC1=C(C#N)C2(CCCC2)Cc2ccccc21,-0.5,0.71

# 3 consecutive records out of the list so far, for reference:
SMILES,AID504770,CapD inh
CCN1CCN(C(=O)C23CC4CC(C)(CC(C)(C4)C2)C3)CC1,0.2,0.51
CCN1C(=O)c2ccccc2S(=O)(=O)c2ccc(C(=O)N3CCc4ccccc43)cc21,-0.15,0.085
O=C(c1ccccn1)c1ccc2ccccc2n1,0.3,-0.055

# Some of the entries above in another layout.
> COC(=O)N/N=C1/C(=O)c2cccc3cccc1c23
  AID504770: 0.4 | CapD inh: /
> CCN1C(=O)c2ccccc2S(=O)(=O)c2ccc(C(=O)N3CCc4ccccc43)cc21
  AID504770: -0.15 | CapD inh: 0.085
> Cc1ccc2oc(=O)cc(CN3CC(C)OC(C)C3)c2c1 (centres undefined)
  AID504770: -0.95 | CapD inh: /

# Going on with the list:
SMILES,AID504770,CapD inh
COc1ccc(-c2cc(C(=O)OCC(=O)c3ccccc3)c3cccc(Cl)c3n2)cc1,-0.25,-0.77
Cc1onc(-c2c(Cl)cccc2Cl)c1NC(=O)O/N=C/c1ccccc1,-0.1,0.89
O=C(O)/C=C/c1ccc(OC(F)(F)C(F)C(F)(F)F)cc1 (centres undefined),-0.4,/
CC(C)(C)C(=O)n1cc(-c2ccncn2)c(-c2ccc(C(F)(F)F)cc2)n1,/,-0.55
COc1cccc(N(C)C(=O)c2nn(Cc3ccccc3)c(=O)c3ccccc23)n1,1,/
CCN(CC)C(C(=O)Nc1ccc2c(c1)OCO2)c1ccccc1 (centres undefined),0.95,-0.26
CCn1c(=O)c2sccc2n2c(CCCC(=O)NCCc3ccccc3)nnc12,1.8,-1.5
COc1ccc2oc(=O)c(C(=O)O)cc2c1,-0.1,31
CC(=O)Nc1ccc(S(=O)(=O)NCC2CCC(C(=O)O)CC2)cc1 (centres undefined),1.9,-0.02
OCCNCC(O)CN1c2ccccc2Sc2ccccc21 (centres undefined),-0.5,/
CC(C)(C)n1cn[nH]c1=S,0.5,0.62
COc1ccc(C2=C(C)C(N3CCc4ccccc43)=NS2(=O)=O)cc1,1.4,-1.5
O=C(c1ccc(F)cc1)C1CC1C(=O)c1ccc(F)cc1 (centres undefined),0.25,0.76
Cc1cc(N2CCN(C)CC2)ncn1,0.35,-0.62
O=C(NCc1cccs1)c1cc2sccc2n1Cc1ccccc1,0.55,/
O=C(NN1C(=O)C2C3C=CC(C3)C2C1=O)C1CC=CCC1 (centres undefined),0.35,0.13
CCCN1C(=O)CC(=O)N=C1SCC(=O)c1cc(C)n(-c2ccc(F)cc2)c1C,-0.4,/
CCCCCCOc1ccc(S(C)(=O)=O)cc1NC(=O)Nc1ccccc1OC,/,-0.28
CC(C)(C)CC(=O)Oc1ccc(-c2n[nH]nc2C#N)cc1,-0.75,0.29
O=C(Nc1nc(-c2ccccc2)cs1)C12CC3CC(CC(C3)C1)C2,1.7,0.12
